gsp ag = activates gsp, the McCune-Albright syndrome mutation; hit rate 0.13% among 340,000; Potency, µM (top dose mostly 76.9 µM), for the others: top-dose activation (cAMP increase), actives largely listed as activators; gsp mutant cells, cAMP HTRF, 30 min; control for the full effect not named in the record; active = well fitted activation curve with a large enough effect; inconclusive = small, poorly fitted or top-dose-only effect, or another doubt; inactive = no such curve, though single readings can be large or run the other way; cell line not stated here;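 also: phosphodiesterase inhibitor Ro 20-1724 added with compounds to block cAMP breakdown; potency is read from the fitted curve at half-maximal effect; nearly all actives have a fitted effect of over 60% in size; about a fifth of the inactives were tested at one dose only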
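Cells in DMEM/10% FBS with G418 were pretreated with compounds in DMSO plus […] (300 uM stock) for 30 min at 37C. cAMP was measured by HTRF (cAMP-d2 plus anti-cAMP antibody-K) after 30 min at room temperature.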
ClpP mod = qHTS Assay for Activators of ClpP. Potency, µM (highest dose often 57.5 µM), for the others: at the highest dose activity change, negative = active. purified B. subtilis ClpP, FRET peptide cleavage, 20 min. hit rate 1.9% among 340,000. AID 651965, 2013; active = well fitted falling curve with a large enough effect; inconclusive = small, poorly fitted or top-dose-only effect; inactive = no such curve, though single readings can be large or run the other way; also: potency is read from the fitted curve at half-maximal effect; the source files actives as falling curves though it sought activators and does not explain the sign; nearly all actives have a fitted effect of over 65% in size; many hits overshoot -100%
Target sequence (P80244 whole entry, looked up): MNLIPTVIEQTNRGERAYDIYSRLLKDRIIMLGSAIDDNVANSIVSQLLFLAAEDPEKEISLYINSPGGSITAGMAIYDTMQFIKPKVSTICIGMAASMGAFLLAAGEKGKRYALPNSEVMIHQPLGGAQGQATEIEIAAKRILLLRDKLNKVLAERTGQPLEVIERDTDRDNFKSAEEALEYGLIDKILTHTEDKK
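Buffer: 100 mM Tris/HCl pH8, 100 mM KCl, 0.05% low protease BSA, 2.5% glycerol, 0.01% Tween-20. ClpP 10 microg/mL final; 20 min RT; delta FRET normalized to ADEP and DMSO controls.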
TRPV1 potentiator = enhances activation of the human vanilloid receptor TRPV1 | TRPV1-expressing cells, Fluo-8 calcium influx, capsaicin EC20 potentiation; host cell line not named in the record; control for the full effect not named in the record | potentiation, % at 8.33 µM | hit rate 0.02% among 320,000; active means potentiation above 80%; inconclusive means 30% to 80%; inactive means below 30%; also: 0% is about no effect
Target sequence (Q8NER1 whole entry, looked up): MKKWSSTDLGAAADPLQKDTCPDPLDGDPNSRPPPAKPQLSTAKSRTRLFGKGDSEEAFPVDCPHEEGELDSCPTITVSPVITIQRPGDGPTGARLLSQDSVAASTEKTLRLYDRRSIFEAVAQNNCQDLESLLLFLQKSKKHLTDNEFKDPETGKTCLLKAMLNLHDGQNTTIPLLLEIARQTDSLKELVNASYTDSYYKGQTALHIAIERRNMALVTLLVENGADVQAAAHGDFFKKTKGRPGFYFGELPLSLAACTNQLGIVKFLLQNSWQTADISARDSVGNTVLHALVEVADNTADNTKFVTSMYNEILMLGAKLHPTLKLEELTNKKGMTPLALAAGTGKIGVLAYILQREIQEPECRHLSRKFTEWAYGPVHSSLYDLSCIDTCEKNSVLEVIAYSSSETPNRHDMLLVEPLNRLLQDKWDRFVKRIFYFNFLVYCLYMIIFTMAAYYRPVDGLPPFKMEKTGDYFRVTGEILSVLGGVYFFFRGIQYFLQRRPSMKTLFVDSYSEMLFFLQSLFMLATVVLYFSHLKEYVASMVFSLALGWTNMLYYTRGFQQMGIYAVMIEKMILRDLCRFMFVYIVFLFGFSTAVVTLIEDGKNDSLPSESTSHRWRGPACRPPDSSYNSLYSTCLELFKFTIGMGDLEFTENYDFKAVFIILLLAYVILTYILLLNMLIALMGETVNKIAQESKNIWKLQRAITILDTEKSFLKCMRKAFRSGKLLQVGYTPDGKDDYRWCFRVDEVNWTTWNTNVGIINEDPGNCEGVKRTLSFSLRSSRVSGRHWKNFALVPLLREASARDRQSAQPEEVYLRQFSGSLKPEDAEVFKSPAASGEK
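TRPV1-expressing cells were cultured overnight at 35.5C and loaded with Fluo-8 calcium dye for 40 to 90 min at room temperature. After a 10 s baseline, compound was added and calcium influx was read kinetically for 3 min (ex 480/em 520 nm).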
Sfp PPTase inh = Sfp phosphopantetheinyl transferase inhibition. Potency, µM, without a hit: max response, negative = inhibition, actives largely listed as inhibitors. Q9F4F7. Biochemical Sfp PPTase activity, qHTS. hit rate 3.5% among 310,000; active = well fitted inhibition curve with a large enough effect; inconclusive = small, poorly fitted or top-dose-only effect, or another doubt; inactive = no such curve, though single readings can be large or run the other way;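 also: the enzyme is Sfp with the accession as filed and its product quenches rhodamine fluorescence; potency is read from the fitted curve at half-maximal effect; 0% = enzyme reaction without inhibitor and -100% = no enzyme wells; top concentration of the series not given in the record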
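After 15 min at room temperature with compound, 15 nM Sfp received 5 uM rhodamine-CoA plus 12.5 uM BHQ-2-ybbR (50 mM Hepes pH 7.6, 10 mM MgCl2). Rate came from the fluorescence difference over 30 min, ex 525/em 598 nm.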
gsp antagonist = gsp mutant antagonism | Potency, µM (doses to about 76.9 µM), without a hit: at the top dose activity change, negative = inhibition, usual class: inhibitors | AID 624288 | gsp-mutant cells, cAMP HTRF, 30 min; control for the full effect not named in the record | hit rate 0.4% among 340,000; active = falling curve of any shape with a large fitted effect; inconclusive = falling curve, mostly with a smaller effect; inactive = flat or rising curve; cell line not stated here;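 also: intracellular cAMP measured with PDE inhibitor Ro 20-1724 present during compound exposure; potency is read from the fitted curve at half-maximal effect; % is scaled to controls: 0 for no effect and ±100 for the full control effect; nearly all actives have a fitted effect of over 65% in size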
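Measurement of cellular cAMP by homogeneous time-resolved fluorescence following a 30 min compound exposure at 37C. The PDE inhibitor […] was present throughout; the assay buffer was DPBS with 0.05% BSA and 0.005% Tween 20.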
Menin-MLL FL inh = menin-MLL binding inhibition, fluorescein peptide. FP activity change, % at 61.4 µM. 290,000 tested, under 10 active. AID 1766. Fluorescence polarization, fluorescein-MLL peptide displacement from menin; inconclusive = falling polarisation curve, or a change in total fluorescence; inactive = total fluorescence flat and polarisation flat or rising; no compound was filed as active; the % refers to the polarisation; negative = inhibition;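 also: % of control where 0% means no effect; inhibitors lower the polarisation; unlabelled MLL peptide was the positive control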
CtBP-E1A inh = blocks the CtBP interaction with E1A; activity change, % (no concentration beside the values); hit rate 0.49% among 340,000; AlphaScreen GST-E1A/His-CtBP binding, 1536-well; stronger effect = lower value; control for the full effect not named in the record; AID 651724; in the data active means activity change below about -65%; inconclusive means about -30% to -65%; inactive means above about -30%; also: % is scaled to controls: 0 for no effect and ±100 for the full control effect; compound concentration not given in the record
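Steps: dispense buffer (Tris pH 8.0, NaCl 300 mM, TCEP 1 mM, BSA, Tween 20); add 5X protein mix (GST-E1A, His-CtBP, 125 nM each); pin 23 nL compound; 2 h at 37 °C, dark; add 5X beads (50 ug/mL); 1 h; read.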
* hit, by the source's call; ? = inconclusive; nt = not tested or not shown; & = joins results of further samples; [ ] = dose if it differs, or a comment.

#	Compound	gsp ag	ClpP mod	TRPV1 potentiator	Sfp PPTase inh
1	COc1cc(NC(=O)c2cc(S(=O)(=O)N3CCCCC3)c[nH]2)cc(OC)c1	-4%	-13%	21	15%
2	COc1ccc(NC(=S)N2CCC(NC(=O)c3cccc(C)c3)CC2)cc1	-7%[15.4 µM]	-1.7%	0	19%
3	COC(=O)c1c(C)[nH]c(C(=O)OC(C)C(=O)N(C)C2CCCCC2)c1C (stereo not given)	-3%	-2.0%	-32	nt
4	COc1ccc(NC(=O)CSc2nccn2-c2ccccc2)cc1	-1%	-2.5%	3	7%
5	COc1ccc(C2/C=C\CN(C(=O)Nc3ccc(C(F)(F)F)cc3)CC(=O)N2Cc2ccc(F)cc2)cc1 (stereo not given)	nt	-1.3%	-27	13%&31%
6	COc1ccc(CCNC(=O)CSc2n[nH]c(C)c2[N+](=O)[O-])cc1OC	1%	2.5%	-1	2%
7	Cc1cccc(NC(=S)NCCN(C2CCCCC2)C2CCCC2)c1	3%	1.8%	-19	5%
8	CCCC(=O)Nc1cccc(NC(=S)NC(=O)C(C)Oc2ccc(Cl)cc2Cl)c1 (stereo not given)	3%	0.2%	-15	27%
9	CSc1nnc(CSc2cc(C)nc(N(C)C)n2)o1	8%	-2.1%	4	6%
10	CCCn1c(N)c(C(=O)CSc2n[nH]c(-c3ccccc3F)n2)c(=O)n(C)c1=O	?	-0.9%	16	nt

#	gsp antagonist	Menin-MLL FL inh	CtBP-E1A inh
1	18%	-3.2	-1
2	14%	nt	0
3	1%	nt	-12
4	-17%	-2.4	-13
5	-31%	-0.7&3.2	0
6	-1%	3.3	nt
7	5%	0.0	2
8	16%	-2.1	-8
9	-1%	3.5	7
10	-15%	nt	nt

Ordered by molar mass (largest number first): three of the compounds above
#	Compound	gsp ag	ClpP mod	TRPV1 potentiator	Sfp PPTase inh
6	COc1ccc(CCNC(=O)CSc2n[nH]c(C)c2[N+](=O)[O-])cc1OC	1%	2.5%	-1	2%
3	COC(=O)c1c(C)[nH]c(C(=O)OC(C)C(=O)N(C)C2CCCCC2)c1C (stereo not given)	-3%	-2.0%	-32	nt
9	CSc1nnc(CSc2cc(C)nc(N(C)C)n2)o1	8%	-2.1%	4	6%

#	gsp antagonist	Menin-MLL FL inh	CtBP-E1A inh
6	-1%	3.3	nt
3	1%	nt	-12
9	-1%	3.5	7

Next entries.
#	Compound	gsp ag	ClpP mod	TRPV1 potentiator	Sfp PPTase inh
11	NC(=O)c1ccc(NC(=O)CN2CCN(C(=O)c3ccco3)CC2)cc1	?	0.3%	-7	11%
12	COc1ccc(CCNC(=O)C2(C)CCC(=O)N2CCC(C)C)cc1OC (stereo not given)	?	0.0%	-1	27%
13	Cn1c(=O)c2c(nc(NCC(O)CO)n2CCc2ccccc2)n(C)c1=O (stereo not given)	?	0.8%	26	4%
14	NS(=O)(=O)c1ccc(NC(=O)COc2ncnc3sccc23)cc1	0%[15.4 µM]	nt	-4	-6%
15	CC(C(=O)Nc1ccccc1-c1ccccc1)N1CCOCC1 (stereo not given)	-31%[inhibitor]	-3.5%	4	4%
16	CCOc1ccc(C(=O)N2CCN(c3cccc(Cl)c3)CC2)cc1	-1%	0.7%	-14	-8%
17	COc1cc(/C=N/NC(=S)N/N=C/c2cc(OC)c(OC)c(OC)c2)cc(OC)c1OC	6%	-7.9%	7	4%
18	CCOc1ccc(N2CC(C(=O)Nc3cccnc3)CC2=O)cc1 (stereo not given)	3%	-0.3%	-5	18%
19	Cc1cc(C)cc(N(C(=O)c2csnn2)C(C(=O)NC2CCCCC2)c2cccnc2)c1 (stereo not given)	-2%[15.4 µM]	0.4%	-8	9%
20	CC(=O)c1cn(CC(=O)NCC2CCCO2)c2ccccc12 (stereo not given)	8%	0.1%	-5	12%

#	gsp antagonist	Menin-MLL FL inh	CtBP-E1A inh
11	14%	nt	3
12	10%	-3.0	0
13	4%	1.4	1
14	15%	10	8
15	-1%	2.0	0
16	-4%	-0.8	nt
17	14%	-5.8	-19
18	3%	0.5	8
19	-28%	1.0	0
20	-16%	6.1	7

Next section:
#	Compound	gsp ag	ClpP mod	TRPV1 potentiator	Sfp PPTase inh
21	COc1cccc(Cn2cnc3c(NS(=O)(=O)c4cccc(Cl)c4Cl)c(C)c(C)cc32)c1	-3%	0.5%	12	2%
22	CCC(=O)NCCc1nc2ccccc2n1CC	21%	-0.5%	10	27%
23	O=C(CSc1nc(=O)n(CCCN2CCOCC2)c2c1CCC2)Nc1cccc(F)c1	-16%[15.4 µM]	nt	6	nt
24	O=C(CN1CCN(Cc2ccccc2)C1=O)NCc1cccs1	10%	-1.1%	12	30%
25	CC(NC(=O)CCN1C(=O)c2ccccc2C1=O)c1ccccc1 (stereo not given)	-8%	0.9%	-6	10%
26	COc1ccc(S(=O)(=O)N2CCOCC2)cc1NC(=O)CCCSc1ccccc1	-13%	0.9%	nt	nt
27	O=c1cc(CN2CCOCC2)c2cc(Cl)c(O)cc2o1	16%	3.6%	-20	6%
28	OCCCNc1nc(-c2ccccc2)c2cc(Cl)ccc2n1	8%	-26%	nt	nt
29	CCOc1cccc(C(=O)Nc2ccc3[nH]ncc3c2)c1	0%[15.4 µM]	-1.5%	-20	4%
30	C=CCSc1nc(-c2ccccc2)c2cc(Cl)ccc2n1	15%	?	15	-10%

#	gsp antagonist	Menin-MLL FL inh	CtBP-E1A inh
21	-23%	2.6	-8
22	-3%	5.1	6
23	-4%	nt	-6
24	7%	5.3	-4
25	10%	-1.4	nt
26	nt	nt	11
27	-13%	-3.4	nt
28	-9%	nt	nt
29	-3%	-1.2	-7
30	-2%	-0.2	18

Next compounds
#	Compound	gsp ag	ClpP mod	TRPV1 potentiator	Sfp PPTase inh
31	COc1ccccc1CNC(=O)c1ccccc1C(=O)NC(CC(C)C)C(=O)NCc1ccccc1OC (stereo not given)	-8%	-1.4%	-3	9%
32	O=C(/C=C/c1cccc(Br)c1)NCc1ccncc1	-19%[15.4 µM]	nt	-18	10%
33	Cc1cnc(C)c(N(C)NC(=S)Nc2ccccc2)n1	1%[15.4 µM]	-4.0%	17	18%
34	O=c1c2ccccc2[nH]c(=S)n1C1CCCCC1	27%	-0.3%	-2	8%
35	COc1ccc2c(c1)O[C@H](c1ccc3c(c1)OCO3)[C@@H](OC(=O)Nc1cc(OC)c(OC)c(OC)c1)C2=O	nt	nt	-21	10%&7%
36	COC(CNC(=O)c1ccc(CS(=O)(=O)c2ccc(Br)cc2)o1)OC	-43%[inhibitor]	-3.0%	-1	5%
37	Cc1ccc(C(=O)N/C(=C/c2ccco2)C(=O)NCCc2c[nH]c3ccccc23)cc1	-2%	1.1%	1	0%
38	COc1ccc(CCNC(=O)c2cnc(C)cn2)cc1	?	0.0%	-23	17%
39	CCN1CCN(Cc2ccc(NC(=O)c3cc(NC(=O)c4nccnc4N)cc(OC)c3)cc2C(F)(F)F)CC1	nt	-4.6%	-11	-6%
40	CCOC(=O)N1CCN(C(=O)CCc2ccc(S(=O)(=O)NCCc3ccccc3)cc2)CC1	15%	-0.9%	-14	-1%

#	gsp antagonist	Menin-MLL FL inh	CtBP-E1A inh
31	-2%	-0.7	3
32	0%	1.4	6
33	11%	1.3	0
34	2%	5.1	12
35	nt	-1.4&2.6	nt
36	10%	-17	-24
37	-4%	8.5	-25
38	8%	nt	9
39	11%	-4.6	-3
40	9%	-0.8	0

Other structures
#	Compound	gsp ag	ClpP mod	TRPV1 potentiator	Sfp PPTase inh
41	COc1cccc(N2CCN(C(=O)c3cc4cc(Cl)ccc4[nH]3)CC2)c1	-24%	-5.6%	8	7%
42	C=CCN(c1ccccc1)S(=O)(=O)c1ccc(Cl)c(C(=O)OCC(=O)NCCCN2CCCC2=O)c1	3%[15.4 µM]	-20%	-4	13%
43	Cc1cccc(-c2nsc(SCC(=O)c3ccc(Cl)cc3)n2)c1	12%	-3.8%	?	-11%
44	O=C(C(=Cc1ccc(F)cc1)c1ccccc1)c1ccc(O)cc1	8%	-2.2%	nt	nt
45	Brc1ccc2[nH]ncc2c1	?	0.2%	9	12%
46	NC(=O)CSc1nc2ccccc2n1Cc1ccccc1	-33%[inhibitor]	0.0%	9	21%
47	CCOc1ccc(C(CCc2ccccc2)NC(=O)c2ccccc2OC)cc1OCC (stereo not given)	-20%	-1.5%	-2	11%
48	Cc1ccc(O)c(C2=Nc3ccccc3N=C(c3ccc([N+](=O)[O-])cc3)C2)c1	-32%[inhibitor]	-2.1%	0	-7%
49	O=Cc1cn(CCOc2ccccc2F)c2ccccc12	-21%	-1.1%	?	-4%
50	O=C1c2ccccc2C(=O)N1CCc1ccccc1	6%[15.4 µM]	0.3%	nt	nt

#	gsp antagonist	Menin-MLL FL inh	CtBP-E1A inh
41	-7%	1.0	-2
42	-5%	-1.1	0
43	-9%	7.4	6
44	?	nt	-11
45	8%	5.8	5
46	10%	nt	3
47	-18%	-0.2	-1
48	6%	4.3	1
49	-1%	1.1	nt
50	-13%	nt	1

Continuation.
#	Compound	gsp ag	ClpP mod	TRPV1 potentiator	Sfp PPTase inh
51	CC(Oc1ccccc1)C(=O)N=Nc1c(O)[nH]c2ccc([N+](=O)[O-])cc12 (stereo not given)	-35%[inhibitor]	1.8%	-26	-6%
52	C/C(CCc1ccc2c(c1)OCO2)=N\N=C(/N)SC1CC(=O)N(c2ccc(Cl)cc2)C1=O (stereo not given)	12%	-0.6%	12	56µM*
53	CCc1ccc(CN(C)CCc2ccccn2)cc1	?	0.6%	?	?
54	c1coc(CSSCc2ccco2)c1	?	0.7%	-6	nt

#	gsp antagonist	Menin-MLL FL inh	CtBP-E1A inh
51	-12%	-2.8	nt
52	-11%	4.5	10
53	12%	-2.1	-18
54	-11%	nt	0

Screening data from PubChem.
